Source: PubChem BioAssay
Anaer choline gr: blocks anaerobic gram-negative growth on choline | Gram-negative bacterium anaerobic choline minimal medium, absorbance growth; active compounds read low; many inactives read as strong as hits in the columns shown | calls only | hit rate 0.2% among 55,000 | AID 1963822;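 active = growth z-score on choline under -2 at 7 or 20 h with little or no fall on glycerol, limits in tiers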;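 also: stock transfer was 300 nL into about 50 µL; the organism is E. coli; final concentration not given here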
Anaer choline gr early: second read-out of Anaer choline gr, no call of its own (marks repeat the call); z-score; measured here: choline growth z-score, timepoint 1;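 score of optical density at 7 h as mean of two plates; lower means less growth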
Active calls of the source: *; i = inactive; & = joins results of further samples.

Anaer choline gr	Anaer choline gr early	mol
i	0.41	CC(=O)Nc1ccc(S(=O)(=O)Nc2cccc(-c3ccc4cc(C(C)C)ccc4n3)c2)cc1
i	0.02	CCN1CCC2(CC1)NCCc1c2[nH]c2ccc(OC)cc12
i	-1.13	O=C(NCc1ccc(F)cc1F)C1CCN(c2ncnc3c2oc2ccccc23)CC1
i	-0.96	O=S(=O)(Nc1ccc(Cn2cnc(-c3nc(-c4ccc(F)cc4)no3)c2)cc1)c1ccc(Cl)cc1
i	0.81	O=C(c1cncc(Br)c1)N1CCN(c2ccc(-c3noc(C4CCC4)n3)cc2)CC1
i	-1.27	CN(C)c1ccc(-c2nc3cnc(Br)cn3c2Nc2ccc3c(c2)OCCO3)cc1
i	0.36	COc1ccc(OCc2nc(CCN(C)C(=O)CC3CCCC3)no2)cc1
i	0.32	CC1CCCN(S(=O)(=O)C2CCS(=O)(=O)C2)C1 (stereo not given)
i	-1.14	CNC(=O)c1sc(=S)n2c1[nH]c(=O)c1cc(Br)ccc12
i	0.48	COc1ccc(CNc2c(C(=O)Nc3cccc(C)c3C)cnc3c2c(C)nn3-c2ccccc2)cc1
i	0.87	Cc1cc(C)n(-c2cc(NCc3ccc(Br)cc3)ncn2)n1
i	0.34	COc1cccc(-c2nnc(SCc3cc(=O)n4c(C)csc4n3)o2)c1
i	0.49	COc1ccc(-c2cc(C(=O)Nc3ccc(F)cc3)nn2C2CCS(=O)(=O)C2)cc1 (stereo not given)
i	0.16	O=S(=O)(c1cccc(Cl)c1)N1CCC2(CC1)Nc1ccccc1-n1cccc12
i	1.36	Cc1c(C(=O)NCC(c2ccccc2)c2c[nH]c3ccccc23)oc2ccc(F)cc12 (stereo not given)
i	0.44	COc1ccccc1CN1C(=O)c2ccccc2CC1(C)C(=O)NC1CCCCC1 (stereo not given)
i	-1.09	Cc1ccc(Cn2c3ccccc3c3cnn(CC(=O)Nc4ccccc4Cl)c(=O)c32)cc1
i	0.29	CCOC(=O)c1nc(Nc2ccc(F)c(F)c2)c2c(C)noc2n1
i	-0.66	CCn1nnc2cc(C(=O)N3CCc4ccccc43)ccc21
i	-0.66	Cc1nc2c(c(=O)[nH]1)CCN(Cc1ccccc1)C2
i	0.05	CCOC(=O)C1=C(C)NC(=O)NC1c1cn(-c2ccccc2)nc1-c1ccc(Br)cc1 (stereo not given)
i	2.68	CCc1ccc(CNc2nc(C)nc3c(-c4ccc(C)cc4)noc23)cc1
i	-0.45	Cc1ccc(-c2nccc(Oc3ccc(C(=O)NCc4ccc(Br)cc4)cc3)n2)cc1
i	0.3	Cc1cccc(NC(=O)n2ncc3c(C)cccc32)c1C

Random excerpt: six entries already listed
Anaer choline gr	Anaer choline gr early	mol
i	0.3	Cc1cccc(NC(=O)n2ncc3c(C)cccc32)c1C
i	-1.27	CN(C)c1ccc(-c2nc3cnc(Br)cn3c2Nc2ccc3c(c2)OCCO3)cc1
i	0.34	COc1cccc(-c2nnc(SCc3cc(=O)n4c(C)csc4n3)o2)c1
i	0.32	CC1CCCN(S(=O)(=O)C2CCS(=O)(=O)C2)C1 (stereo not given)
i	0.81	O=C(c1cncc(Br)c1)N1CCN(c2ccc(-c3noc(C4CCC4)n3)cc2)CC1
i	0.02	CCN1CCC2(CC1)NCCc1c2[nH]c2ccc(OC)cc12

(listing goes on)
Anaer choline gr	Anaer choline gr early	mol
i	-0.57	CCCC1N=C2c3ccccc3N=C(SC(C)C(=O)Nc3ccc4c(c3)OCCO4)N2C1=O (stereo not given)
i	-0.31	Cc1nc(-n2[nH]c(C)c(Cc3ccccc3)c2=O)sc1C(=O)N1CCc2ccccc2C1
i	-0.16	CCOC(=O)c1[nH]c(C)c(S(=O)(=O)NC2CCCCC2)c1C
i	0.77	CCc1nc(-c2cc(S(=O)(=O)N3CCC(C(=O)Nc4ccc5c(c4)OCO5)CC3)c(C)s2)no1
i	0.02	CCCCn1c(=O)c2sccc2n2c(=O)n(CC(=O)NCc3ccc(OC)cc3)nc12
i	-0.49	COc1cccc2sc(N(CCCN(C)C)C(=O)c3ccc(Cl)cc3)nc12
i	-0.4	O=C(Cn1ncc2c(c1=O)N(C1CC1)C(=O)CS2)NCCC1=CCCCC1
i	-0.3	O=C(Cn1nc2c3sc(N4CCCCC4)nc3ncn2c1=O)Nc1ccc2c(c1)CCC2
i	-0.31	O=C1C2N=NN(c3ccc(F)cc3)C2C(=O)N1c1cccc(F)c1 (stereo not given)
i	-1.01	Clc1ccccc1CNc1nc2c(-c3ccccc3)nnn2c2ccccc12
i	0.94	CCOC(=O)c1cnn(-c2ccc(C(=O)N3CCN(c4cccc(OC)c4)CC3)cc2)c1N
i	-1.5	CCOc1ccc(-c2nc(Cn3nnc(C(=O)Nc4ccc(OC)cc4)c3C)c(C)o2)cc1
i	-1.31	CC(CNC(=O)c1nc(Cn2cnc3ccccc3c2=O)no1)c1ccccc1 (stereo not given)
i	0	Cn1c(C(=O)N2CCN(C3CCCCC3)CC2)cc2c(=O)oc3ccccc3c21
i	-0.51	CNC(=O)N1Cc2c(C)nn(-c3ccccc3)c2-n2cccc2C1c1ccc(N(C)C)cc1 (stereo not given)
i	0.29	Cc1ccc(N2C(=O)C(Cc3ccccc3)N=C2N2CCN(C)CC2)c(C)c1 (stereo not given)

Complete entries from above. Order of values: Anaer choline gr | Anaer choline gr early
`Cc1ccc(N2C(=O)C(Cc3ccccc3)N=C2N2CCN(C)CC2)c(C)c1` (stereo not given) is listed as i | 0.29
`Cn1c(C(=O)N2CCN(C3CCCCC3)CC2)cc2c(=O)oc3ccccc3c21` is listed as i | 0
`CNC(=O)N1Cc2c(C)nn(-c3ccccc3)c2-n2cccc2C1c1ccc(N(C)C)cc1` (stereo not given) is listed as i | -0.51
`CCOC(=O)c1cnn(-c2ccc(C(=O)N3CCN(c4cccc(OC)c4)CC3)cc2)c1N` is listed as i | 0.94

Going on with the list.
Anaer choline gr	Anaer choline gr early	mol
i	-0.99	Cc1cc(N(C)C)nc(Nc2ccc(NS(=O)(=O)c3ccc(Br)cc3)cc2)n1
i	0.58	Cn1c(=O)c2c(C3C(=O)Nc4ccccc43)c(-c3ccc(Cl)cc3)[nH]c2n(C)c1=O (stereo not given)
i	-2	Cc1nnc(C(=O)Nc2cccc(C(=O)NC3CCN(Cc4ccccc4)CC3)c2)s1
i	-0.47	C[C@](Cc1ccc(O)c(O)c1)(NN)C(=O)O
i	-0.59	CCC(=O)Nc1cccc(-c2noc(C3CCN(C(=O)c4cccc(NC(C)=O)c4C)CC3)n2)c1
i	-1.35	COc1nccn(-c2ccc(F)cc2)c1=O
i	-1.38	Cc1ccc(-c2nc(CNC(=O)c3cccnc3Cl)no2)cc1
i	-0.01	Fc1ccc(OCc2nnc3sc(-c4cccc(F)c4)nn23)cc1
i	-1.5	Cc1ccccc1C(=O)Nc1ccc(N2CCN(c3ccccc3Cl)CC2)c(C(=O)O)c1
i	0.09	CCOC(=O)c1[nH]c(C)c(CN(Cc2ccc(C)cc2)C(=O)Nc2ccc(OCC)cc2)c1C
i	0.76	C=CCSc1nc2c(c(=O)[nH]1)C(c1ccncc1)C(C(=O)OC(C)C)=C(C)N2 (stereo not given)
i	-0.49	CN(C)c1cccc(-c2nc(-c3ccc4c(c3)[nH]c(=O)c(=O)n4C)no2)c1
i	-0.95	CN(C)CCNc1ccc(S(=O)(=O)Cc2ccc(Cl)cc2)nn1
i	-0.06	CC(C)(C)C(=O)N1CCc2nc[nH]c2C1
i	0.02	COc1c(C)cnc2c1c(=O)n(CC(=O)N1CCN(c3ccccc3)CC1)c(=O)n2C
i	1.12	COc1ccc(OCC(=O)OCc2cc(=O)n3oc(C)cc3n2)cc1
i	0.43	O=NO
i	0.85	O=C(CC1=NS(=O)(=O)c2ccccc2N1)N1CCN(C(c2ccccc2)c2ccccc2)CC1
i	0.03	Cc1sc(-c2noc(C(C)C)n2)cc1S(=O)(=O)N1CCCC(C(=O)N2CCN(C)CC2)C1 (stereo not given)
i	0.02	Cc1nc(-c2ccccc2)sc1-c1ccc(SCC(=O)Nc2ccccc2)nn1
i	0.1	COc1ccc2cc([C@@H](C)C(=O)O)ccc2c1
i	-0.27	Cc1cccc(NC(=O)CSc2ncnc3c(-c4ccccc4)c[nH]c23)c1
i	-0.57	CCCc1cc(C2CCCN2S(C)(=O)=O)no1 (stereo not given)
i	-0.41	COCCNCc1ccc(-c2ccc(F)cc2)o1
i	0.31	O=c1[nH]c(N2CCc3ccccc3C2)nc2c(-c3ccccc3)csc12
i	-0.3	O=C(Nc1ccc2nc(SCCOc3ccccc3)sc2c1)c1ccccc1
i	-0.67	O=C(Nc1ccc2c(c1)OCO2)N1CCC2(CC1)Nc1ccccc1-n1cccc12
i	0.79	COCCn1c(C2CCN(C(=O)c3ccc(Cl)s3)C2)nc2cccnc21 (stereo not given)
i	0.3	Cc1nn2c3c(cnc2c1-c1ccc(F)cc1)C(=O)CCC3
i	0.45	CNc1ncnc2c1cnn2-c1ccc(C)c(C)c1
i	0.03	CCCNC(=O)Cc1ccc(-n2c(=O)c3ccccc3n(CC(=O)NC3CCCC3)c2=O)cc1
i	0.26	Cc1ccc(CNS(=O)(=O)c2cc(-c3nc(C(C)(C)C)cs3)cs2)cc1C
i	-0.06	O=C(CCC1CCCC1)N1CCC2(CC1)Nc1ccccc1-n1cccc12
i	-0.41	O=C(Nc1ccc2c(c1)OCO2)c1ccc(-c2cc(NC3CCCCC3)ncn2)cc1
i	0.41	Cn1c(=O)c2[nH]c(-c3ccccc3)nc2n(C)c1=O
i	-0.34	CCCc1cc(C2CCCN2C(=O)c2c(C)noc2C)no1 (stereo not given)
i	0.6	OCc1nc2ccccc2n1CCCOc1ccc(Cl)cc1
i	0.98	Cc1c(N2CCN(C(=O)CC3CCCCC3)CC2)c(=O)n(C)c(=O)n1C
i	-1.4	CC1CCC(NC(=O)C2c3cccn3CC(=O)N2CCc2ccccc2)CC1 (stereo not given)
i	-1.07	CCc1cc(C2CCCN2S(=O)(=O)c2ccc(F)cc2)on1 (stereo not given)
i	-0.75	Cc1nc2nc(C3CCCCC3)nn2c(C)c1CC(=O)N1CCCCC1
i	-0.42	Cc1cccc(C(=O)N2CCN(Cc3ccncc3)CC2)c1
i	0.31	CCCOc1cc(N)ccc1C(=O)OCCN(CC)CC
i	-0.04	CCCc1c(OCC(O)COc2ccc3c(=O)cc(C(=O)O)oc3c2CCC)ccc(C(C)=O)c1O (stereo not given)
i	0.55&0.05	O=C(OCCN1CCOCC1)C1(c2ccccc2)CCCCC1
i	2.24	Cc1nc(-c2ccc(C(=O)Nc3nccs3)cc2)no1
i	0.1	O=c1ccc(-c2ccc3c(c2)OCO3)nn1CCc1nc(-c2ccc3c(c2)OCO3)no1
i	0.5	O=C(Cn1cnc2nc(N3CCC(C(=O)N4CCCCC4)CC3)sc2c1=O)N1CCCCC1
i	0.38	O=C(Nc1nccs1)c1ccc(N2C(=O)CCS2(=O)=O)cc1Cl
i	-2.65	Cn1c(CN2CCCCC2)nc2ccccc21
i	-0.78	Cc1ccc(C(=O)Nc2c(C(=O)NCc3ccc4c(c3)OCO4)[nH]c3ccc(C)cc23)cc1
i	0.77	COc1cccc(S(=O)(=O)N(C)Cc2nc3cc(C(=O)N(C)C)ccc3n2C)c1
i	0.99	COc1ccc(CNC2=NCCNC23CCCCC3)cc1
i	-0.35	CC(C)NC(=O)N1CCC(c2nc(CCNC(=O)C3CCC3)cs2)CC1
i	1.52	CCS(=O)(=O)c1ccc(-c2ccc(NC(=O)CC3CCCC3)cc2)nn1
i	-0.77	O=C(CSc1nnc(-c2cc3ccccc3[nH]2)o1)Nc1nccs1

Continuation:
Anaer choline gr	Anaer choline gr early	mol
i	-1.88	c1ccc(N2CCN(c3ncnc4c3CCC4)CC2)nc1
i	0.94	Cc1ccc2c(c1)OC=CC(C(=O)NC1CCCC1)=C2
i	0.72	CC(C)c1cc(C2CCCN2S(=O)(=O)c2ccccc2F)on1 (stereo not given)
i	0.88	Cc1[nH]c(=O)c(C#N)cc1-c1ccc2nccn2c1
i	0.19	Cc1ccc(C(=O)NCc2nc(-c3ccc4c(c3)ncn4C)no2)cc1
i	-2.55	N[C@@H]1CCCCN(c2c(F)cc3c(=O)c(C(=O)O)cn(C4CC4)c3c2Cl)C1
i	0.47	CCn1c(SCc2cc(=O)n3ccccc3n2)nc2c3cc(OC)ccc3n(C)c2c1=O
i	2.74	O=C1CN(Cc2c(F)cccc2Cl)S(=O)(=O)c2ccccc2N1Cc1ccc(F)cc1
i	0.31	Cc1ccc(C)c(NC(=O)Cc2coc3ccc(C)cc23)c1
i	-0.78	CCOc1ccc(-c2cc3c(SCC(=O)c4ccc(OC)c(OC)c4)nccn3n2)cc1
i	0.23	Cc1nnc(-c2ccc(S(=O)(=O)NC3CCCCCC3)o2)o1
i	0.48	CCCN1CCN(S(=O)(=O)c2ccc(-c3nnc(C4CCCC4)o3)o2)CC1
i	0.8	COc1cccc(CNC(=O)C2CCN(c3ncnc4c3sc3nc(C)cc(-c5ccccc5)c34)CC2)c1
i	-1.26	CCOC(=O)c1c(C)[nH]c(C)c1S(=O)(=O)N1CCCC(C(=O)NCc2ccccc2Cl)C1 (stereo not given)
i	0.94	Cc1ccc2nc(-c3ccccc3NC(=O)c3ccccc3F)ccc2c1
i	-0.57	CC(C)CC(=O)Nc1onc2c1CC(C)CC2 (stereo not given)
i	-0.74	CCCNC(=O)C1CCN(c2ccc(F)cc2)C1=O (stereo not given)
i	0.2	COc1ccc(C(=O)Nc2ccc3c(c2)nc2n3CCN(Cc3ccccc3)C2)cc1
i	0.17	O=C(OCC1CCCO1)c1ccc2c(c1)N(Cc1cccc(F)c1)C(=O)c1ccccc1S2(=O)=O (stereo not given)
i	0.17	COc1ccc2[nH]c3c(c2c1)CCN(C(=O)c1ccc(C)cc1)C31C(=O)Nc2ccccc21 (stereo not given)

Not all compounds are listed, so the mix of outcomes need not match the whole.
